T cruzi inh = blocks replication of Trypanosoma cruzi; T. cruzi beta-gal in NIH3T3, luminescence, 90 h; inhibition, % (concentration not given with the values); 1.4% of 300,000 active;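 active = mean inhibition across valid replicates above about 55%, limit read from the data; inconclusive = mean below that limit but half or more replicates reach it; inactive = mean below it, under half of replicates reach it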;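 also: signal also drops with host cell toxicity which is not excluded here; 0% = plate median of DMSO wells and 100% = zero luminescence signal; higher percent means less beta-gal luminescence so fewer parasites; stock transfer was 50 nL into about 50 µL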
RanGTP-Imp inh = disruptors of Ran-importin-beta complex formation – biochemical, FRET, CFP-Ran, YFP-importin-beta, homogeneous, primary screen; cell-free CFP-Ran/YFP-importin-beta FRET ratio; 1.1% of 300,000 active; inhibition, % (test concentration not listed);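 active = most replicates above 15%; inconclusive = exactly half above 15%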;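 also: 0% = DMSO wells and 100% = Ran loaded with GDP instead of GTP; wells of about 40 µL received 100 nL stock; the first replicate is given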
Ecoli rRNA inh = inhibitors of bacterial rRNA selective over humanized ribosomes | GFP signal change (wild-type ribosome), % (concentration not given with the values) | E. coli WT GFP vs humanized-ribosome RFP mutants, fluorescence, 24 h; active compounds read low; DMSO median 0, no signal -100 | 1.6% of 350,000 active | AID 720706;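 active = significant combined selectivity score with lowered wild-type GFP, culture density cut under 30%, mutant RFP and density less affected; inactive = any of these conditions unmet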; also: one replicate is shown; some compounds called inactive have numbers as strong as hits
AF4-AF9 inh = inhibitors of human MLL-AF4/AF9 interaction | P42568 | inhibition, % at 10 µM | AID 651704 | 0.47% of 350,000 active | AlphaScreen, biotin-AF4 peptide binding to FLAG-AF9;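 active = every replicate reaching a set inhibition limit, whatever the replicate mean, cut at about 25% in these data; inconclusive = mean inhibition reaches that limit but some replicates miss it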;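 also: 0% = plate neutral control median and 100% = total signal loss; the record names both 10 and 1 µM as test concentration; the first replicate is given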
Target sequence (P42568 whole entry, looked up): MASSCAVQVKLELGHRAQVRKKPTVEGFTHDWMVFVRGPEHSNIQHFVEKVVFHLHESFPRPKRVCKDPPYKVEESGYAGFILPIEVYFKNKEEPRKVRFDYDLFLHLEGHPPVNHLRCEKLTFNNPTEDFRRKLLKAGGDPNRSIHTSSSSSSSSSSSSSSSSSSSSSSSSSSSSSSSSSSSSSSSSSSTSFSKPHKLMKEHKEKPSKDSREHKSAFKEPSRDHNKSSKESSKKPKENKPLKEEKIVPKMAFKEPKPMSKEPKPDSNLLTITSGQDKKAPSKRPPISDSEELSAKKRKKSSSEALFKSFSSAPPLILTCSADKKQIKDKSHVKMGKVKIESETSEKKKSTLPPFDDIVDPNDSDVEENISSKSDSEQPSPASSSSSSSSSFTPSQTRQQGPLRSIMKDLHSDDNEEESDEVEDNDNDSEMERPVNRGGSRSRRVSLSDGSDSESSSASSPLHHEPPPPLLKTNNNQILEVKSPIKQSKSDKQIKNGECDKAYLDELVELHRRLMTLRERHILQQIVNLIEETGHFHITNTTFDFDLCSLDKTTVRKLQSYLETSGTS
Bfl-1 A1 inh = inhibitors of the anti-apoptotic protein A1, read as caspase activation. MEF A1-2A-BIM cells, Caspase-Glo 3/7 luminescence, 3 h; percent of clofoctol response, vehicle zero. caspase activation, % (test concentration not listed). 0.066% of 330,000 active. AID 2462;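 active = over half of replicate activation scores above 10%, or exactly half above 10 with the replicate mean above 10; inconclusive = replicate mean below 10 yet half the replicates above 10; inactive = over half of replicates below 10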;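 also: wells of about 30 µL received 50 nL stock; many hits fall short of the cut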
Calb FLC = C. albicans growth modulation with fluconazole. C. albicans CaCi-2 (fluconazole-resistant clinical isolate) + fluconazole, Alamar Blue growth, 48 h. growth inhibition, % (no concentration beside the values). 0.57% of 300,000 active;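 active = most replicates above 75%; inconclusive = exactly half above 75%; inactive = most below 75%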;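 also: all wells also contain fluconazole at 8 µg/ml as a sub-toxic cotreatment; 0% = median of DMSO wells and 100% = median of geldanamycin control wells; wells of about 8 µL received 7.5 nL stock; the first replicate is given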
Beta apoptosis = blocks beta cell apoptosis; AID 435005; 0.8% of 300,000 active; INS-1E cytokine-induced death, ATP luminescence, 48 h; percent of positive-control rescue, neutral wells zero; protection from apoptosis, % (no concentration beside the values);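 active = all replicates at 75% or more, or half of them and the mean; inconclusive = half reach 75% but not the mean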;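 also: 0% = cytokine-treated negative control wells and 100% = positive control rescue; higher means more ATP so stronger rescue from cytokine killing; wells of about 40 µL received 100 nL stock; the first replicate is given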
Vif A3G = inhibitors of Vif binding to APOBEC3G peptide, primary screen, biochemical, TR-FRET, GST-Vif 1-94, biotin-A3G peptide, dose response retest (AID 1117319) | 0.57% of 260,000 active | one-dose inhibition, %; IC50 in µM for titrated hits | TR-FRET GST-Vif / biotin-A3G peptide binding; higher % means a stronger effect; test concentration not given here; strong numbers were not always called active;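 active = above the screen mean plus three standard deviations and confirmed in dose response; inconclusive = results disagree or hit not tested in dose response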;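 also: Vif residues 1-94 fused to GST binding biotinylated APOBEC3G peptide 110-148; 0% = full assay without inhibitor and 100% = GST in place of GST-Vif; retest series ran down from 100 µM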
Ecoli rRNA inh OD600 = recorded beside Ecoli rRNA inh, whose call it bears; OD600 change, %; measured here: OD600 growth;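 optical density of the mix in the first replicate; 0 = DMSO median and -100 = no signal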
Ecoli rRNA inh RFP = also measured in Ecoli rRNA inh; calls as there; RFP signal change, %; measured here: RFP humanized mutant strains;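 first replicate; 0 = DMSO median and -100 = no signal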
An asterisk follows results filed as active; ? = inconclusive; / = not tested or not shown.

SMILES | T cruzi inh | RanGTP-Imp inh | Ecoli rRNA inh | Ecoli rRNA inh OD600 | Ecoli rRNA inh RFP | AF4-AF9 inh | Bfl-1 A1 inh | Calb FLC | Beta apoptosis | Vif A3G
O=C(Nc1nc(-c2ccco2)c(-c2ccco2)s1)C1CC(=O)N(c2ccc3c(c2)OCCO3)C1 (stereo not given) | 2 | 2.0 | / | / | / | / | -0.8 | -2 | 0 | ?
COc1cccc(-n2c(COc3ccccc3C)nnc2SCC(=O)O)c1 | 8 | 0.7 | / | / | / | / | -0.3 | 11 | -3 | ?
O=C(CCc1ccccc1)NNC(=O)C12CC3CC(CC(C3)C1)C2 | 8 | -4.9 | / | / | / | / | 0.0 | -3 | -3 | 8%
CCn1c(N2CCC(C)CC2)nc2c1c(=O)n(C)c(=O)n2C | 5 | ? | -9 | -10 | -4.4 | -4.0 | 0.4 | -5 | 2 | 19%
COc1cccc(C2CNC3(CCCC(C)C3)c3[nH]c4ccccc4c32)c1OC (stereo not given) | ? | ? | -38 | -69 | 27 | ? | 0.4 | 0 | -1 | -4%
Cc1ccc(C(=O)N2CCC(n3nccc3NC(=O)c3ccccc3C)CC2)cn1 | -5 | 5.0 | 19 | 12 | 0.4 | 2.9 | 0.1 | 8 | -6 | /
CCCNC(=S)Nc1cc2oc3ccccc3c2cc1OC | -6 | -1.8 | -1 | 4 | 1.0 | 0.0 | -0.1 | 10 | -7 | -7%
CCCC(C)C(=O)Nc1cccc(NC(C)=O)c1 (stereo not given) | -8 | -2.7 | / | / | / | / | -1.1 | -6 | -4 | 0%
Cc1ccc(NC(=O)N2CCCC2C(=O)NCc2ccccc2Cl)cc1 (stereo not given) | 2 | ? | 10 | 12 | -0.2 | 1.9 | -0.7 | -1 | 1 | /
CCOC(=O)c1c(C)[nH]c(C(=O)CSc2nnnn2-c2ccc(C)cc2)c1C | 9 | 6.6 | 9 | 16 | 17 | 5.4 | -0.4 | -1 | 1 | -7%
COC(=O)c1ccc(COc2ccc(CNCc3ccc(Cl)cc3)cc2)cc1 | 0 | 0.5 | 3 | 7 | -0.8 | -5.2 | -3.3 | 0 | -2 | 5%
C=CCN(c1ccccc1C(=O)NCC(=O)OCC)S(=O)(=O)c1ccc(C)cc1 | 15 | 0.6 | 6 | -1 | 1.1 | -7.5 | -0.8 | 11 | 0 | -1%
CCOC(=O)c1cccc(N2C(=O)C3C(C(=O)NC4CC4)C4(C)C=CC3(O4)C2C(=O)NC(C)(C)C)c1 (stereo not given) | 1 | -4.1 | / | / | / | / | 0.1 | 2 | 1 | 0%
COc1ccc(C(=O)Nc2nc(-c3cccs3)c(NC(C)=O)s2)cc1 | 6 | -0.2 | / | / | / | / | 1.9 | 2 | -5 | 5%
CN(CC(=O)NC1CCCCCC1)S(=O)(=O)c1ccc(Br)cc1 | 1 | 3.4 | 10 | 10 | 0.2 | -1.0 | -0.9 | -6 | 1 | /
COc1ccc(OC)c2sc(NC(=O)c3cccc(N4C(=O)CCC4=O)c3)nc12 | -4 | 3.1 | 1 | -4 | -2.3 | -1.2 | 0.2 | -5 | -11 | /
Cc1c(Cc2ccccc2)c(=O)oc2cc(OCC(=O)NC(Cc3ccc(Cl)cc3)C(=O)O)ccc12 (stereo not given) | 4 | 0.8 | -27* | -15* | 8.5* | -1.5 | 1.6 | 1 | -4 | /
Brc1ccc2c(c1)C(C1=NCCN1)c1ccccc1CS2 (stereo not given) | -15 | -0.4 | 23 | 15 | -7.6 | 2.1 | 0.4 | 12 | 8 | 0%
O=c1nc(NCc2ccccc2Cl)cn[nH]1 | -26 | -2.6 | 3 | 4 | 1.1 | -50 | -0.2 | -7 | -2 | 7%
C/C=C/c1ccc(OCCCCOc2c(OC)cccc2OC)c(OC)c1 | 4 | -0.7 | / | / | / | -4.1 | 0.5 | -6 | 0 | 2%
CC(=O)N1CCN(c2ccc(NCc3cccc4ccccc34)cc2)CC1 | -13 | 3.3 | 8 | 12 | 4.1 | ? | -0.9 | -4 | 3 | 28%
CCN1CCN(C(c2ccccc2)c2nnnn2Cc2ccccc2)CC1 (stereo not given) | 20 | -2.3 | / | / | / | / | 0.0 | -23 | -7 | ?
COc1ccccc1NC(=O)c1cc(-c2cc(OC)c(OC)c(OC)c2)nc2ccccc12 | 34 | -0.2 | 3 | -9 | 4.9 | 6.6 | 0.2 | -4 | 9 | /
Cc1cc(=O)n2c(nc3ccccc32)[nH]1 | 6 | 6.1 | / | / | / | / | 0.5 | 20 | 3 | /
CCCNC(=S)N1CCC(NC(=O)c2ccc(C)cc2)CC1 | -1 | -2.2 | 3 | 8 | -1.6 | -2.2 | 0.6 | 13 | 2 | /
COc1ccc(C(=O)NCc2nnc(SCC(=O)NC3=NCCS3)n2C)cc1 | 0 | -1.2 | 3 | 5 | 1.2 | -2.3 | 0.8 | -4 | -16 | /
Cc1cccc(C2N(c3ccc(F)cc3)C(=O)C3CCCN32)c1 (stereo not given) | -4 | ? | 17 | 4 | -1.7 | 2.8 | -0.7 | -4 | 0 | 2%
CCC1(c2ccccc2)NC(=O)N(CC#N)C1=O (stereo not given) | 6 | 0.2 | 15 | 30 | 4.8 | -7.6 | -4.0 | 4 | -4 | /
Cc1cc(C)c(C)c(S(=O)(=O)NCC(=O)Nc2sc3c(c2C(N)=O)CCCC3)c1C | 12 | 0.8 | / | / | / | / | 0.6 | -1 | -4 | -2%
CCc1ccc(Nc2cc(=O)n(C3CCCCC3)c(=O)[nH]2)cc1 | 10 | ? | / | / | / | / | 0.9 | 0 | 12 | 2%
O=C(Nc1ccccc1OC(F)F)c1ccc(S(=O)(=O)N2CCOCC2)cc1 | 1 | 3.6 | -4 | 4 | -1.9 | -2.4 | -0.2 | 1 | / | /
O=c1[nH]c2ccccc2n2c(=S)[nH]nc12 | 6 | 6.0 | 18 | 7 | -12 | 2.6 | 0.9 | 5 | 4 | -48%
CC(C)OC(=O)CCCNc1ccc([N+](=O)[O-])cc1[N+](=O)[O-] | -12 | 4.8 | -15 | -12 | -9.9 | 6.2 | 0.4 | -1 | -10 | /
CCOc1ccc(N2CC(C(=O)Nc3ccc(S(=O)(=O)N4CCOCC4)cc3)CC2=O)cc1 (stereo not given) | 2 | 7.0 | / | / | / | / | -1.6 | 12 | -7 | ?
O=C(COC(=O)C1CCN(S(=O)(=O)c2cccc3cccnc23)CC1)c1ccccc1 | -14 | 1.4 | 4 | 1 | 4.3 | 1.7 | -0.5 | 1 | -2 | ?
CCOC(=O)c1cc(-c2ccco2)nc2c1c(C)nn2CCC#N | 11 | 7.2 | / | / | / | / | 0.0 | 11 | / | 18%
CN1C(=O)/C(=C/C=C2\SCCN2C)OC1=S | 1 | 0.7 | 9 | 7 | -0.7 | 0.8 | -0.4 | -7 | 1 | /
O=C(Nc1cccnc1)c1sc2cccc(F)c2c1Cl | 9 | -1.7 | -20* | 9.2* | 5.8* | -3.2 | -1.1 | -6 | -3 | -17%
Cc1cc(C)c2nc(-c3ccccn3)cc(C(=O)NCc3ccc(S(N)(=O)=O)cc3)c2c1 | -15 | 3.5 | 7 | 18 | 5.6 | 0.8 | 1.7 | 30 | 7 | -16%
Cc1cc2ncn(/N=C/c3cccnc3)c2cc1C | 4 | -1.1 | / | / | / | / | 0.2 | -10 | -3 | -4%
CCOC(=O)C1(Cc2ccccc2)C(=O)Nc2ccccc21 (stereo not given) | -17 | 1.9 | / | / | / | 1.4 | 1.2 | 1 | 0 | /
Cc1ccc(NCN2C(=O)C3CC=CCC3C2=O)cc1 (stereo not given) | -3 | -0.6 | / | / | / | / | 0.0 | 2 | 0 | 6%
CC(Cc1cccnc1)NC(=O)CCc1nnc(-c2ccccc2)o1 (stereo not given) | -9 | -2.7 | 10 | 7 | -0.2 | -11 | -0.1 | -2 | 2 | /
C=C(C)c1cccc(C(C)(C)NC(=O)Nc2ccc(C)cn2)c1 | 14 | 4.0 | -24 | -42 | 17 | -4.7 | -0.3 | 33 | -5 | ?
COCC(=O)Nc1ccc([N+](=O)[O-])cc1C | -12 | -0.3 | / | / | / | / | 1.4 | 2 | -6 | /
CCOC(=O)C1(CCOc2ccccc2)CCN(Cc2nccn2CC)CC1 | 17 | 4.3 | 2 | -2 | -2.5 | 6.5 | 1.1 | -29 | -2 | 21%
Cc1nc(-c2ccccn2)sc1C(=O)Nc1ccc(F)cc1 | -5 | -2.7 | / | / | / | / | 1.1 | 15 | 7 | -9%
COc1ccc(CN2CCNC(=O)C2CC(=O)NCCC2=CCCCC2)c(F)c1 (stereo not given) | 17 | 0.9 | -2 | -6 | 4.2 | -1.2 | -0.7 | -21 | -5 | 1%
COc1ccccc1NC(=O)CCSc1nc(C)cs1 | 9 | 4.0 | -3 | 0 | 3.4 | -7.7 | 0.2 | -7 | 0 | /
CCOC(=O)C1=C(COC(=O)/C=C/c2cccc(Br)c2)NC(=O)NC1C (stereo not given) | / | / | 0 | 6 | -3.5 | 0.1 | -0.6 | / | -3 | -9%
Nc1cc2c(cc1C(=O)c1cccc(Br)c1)OCCO2 | 16 | -1.6 | / | / | / | / | 0.5 | -2 | -3 | -2%
COC(=O)c1cc(C(=O)OC)cc(-n2c(C)cc(C=O)c2C)c1 | -2 | -1.4 | 26 | 10 | 5.1 | 3.8 | 0.3 | 13 | -2 | -10%
CC1CC1C(=O)OCC(=O)N(C)CC(=O)Nc1ccc(F)cc1 (stereo not given) | / | / | 8 | 11 | -1.3 | ? | 0.5 | / | -1 | /
NS(=O)(=O)c1ccc(CCNC(=S)Nc2ccc(F)cc2)cc1 | -13 | 3.0 | 11 | -6 | 2.7 | 0.0 | -0.1 | -7 | -5 | 9%
CC(NC(=O)COC(=O)c1ccccc1O)C1CC2CCC1C2 (stereo not given) | / | / | 4 | -15 | 1.0 | 0.1 | 0.9 | / | -3 | /
CC1(C)Cc2nc3sc(C(=O)NCCO)c(N)c3cc2CO1 | -4 | 11 | / | / | / | / | -0.4 | 15 | 1 | 8%
Cc1ccc(NC(=O)CC2SC3=NCCCN3C2=O)c(C)c1 (stereo not given) | -16 | -52 | / | / | / | / | 0.6 | -1 | -1 | 4%
CC(=O)Nc1nc2ccccc2n1Cc1ccccc1 | -10 | 5.4 | -20 | -12 | -4.9 | 2.0 | -0.6 | 18 | 4 | -1%
Cc1c(CNCCc2ccccc2)c(C(=O)O)c(C)n1-c1ccccc1 | 3 | 10 | -5 | -13 | 1.6 | 7.1 | -0.6 | -9 | -3 | 2%
O=C(CN1C(=O)NC2(CCCCC2)C1=O)Nc1cccc2ncccc12 | / | / | 3 | 7 | -0.9 | 1.0 | -0.5 | / | 1 | 4%

Compound activity as filed in PubChem.

A portion of the library; rates above refer to the full screens.
